# Autofluor counter: flagged as autofluorescent in microsphere protease counterscreen; AID 624483; 3.1% of 360,000 active; compound autofluorescence counterscreen, microsphere flow cytometry; hits give high values; fluorescence intensity (concentration not given with the values);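 active means at least 3 SD above the mean of all compounds, about 16000 in these data; inconclusive means too few beads counted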;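 further: 100 nL of 1 mM stock went into each well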
# BJeLR viability: kills HRASV12-expressing BJeLR cells. BJeLR (HRASV12) viability, CellTiter-Glo ATP luminescence, 48 h; reference of the scale not given here. inhibition, % (no concentration beside the values). 0.17% of 300,000 active. AID 1554;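 active means replicate mean above 50%; inconclusive means above 50% but judged a plate artefact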;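 further: 50 nL library stock added to about 25 µL; numbers are from one replicate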
# RN4220 kill: kills Staphylococcus aureus RN4220. S. aureus RN4220 growth, OD600, 16 h. inhibition, % (test concentration not listed). 0.33% of 330,000 active. AID 1259311;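 active means z-score of -3 or lower and OD600 up to 0.18 on both plates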;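 further: plate controls were untreated cells for no effect and reference antibiotic for full effect; stock transfer was 100 nL into about 80 µL; one replicate is shown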
# Mtb hypoxia rep: inhibitors of hypoxia-regulated fluorescent reporter in Mycobacterium tuberculosis. M. tuberculosis hypoxia-regulated fluorescent reporter, fluorescence. 0.1% of 300,000 active. AID 1159583. fluorescence inhibition, % (test concentration not listed);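 active means 35 to 45% if threefold the growth effect, above 45% if 1.5-fold the growth effect; inactive means the rest, general growth blockers included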;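 further: wells of about 50 µL received 100 nL stock; 0% = vehicle wells and 100% = reference inhibitor wells; whole bacteria with a GFP reporter of the hypoxia response; strong numbers were not always called active; many hits fall short of the cut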
# Sa ugtP lethal: growth inhibition of S. aureus ugtP deletion strain | growth inhibition, % (no concentration beside the values) | 0.54% of 330,000 active | S. aureus RN4220 ugtP deletion, OD600 growth, 16 h; some inactives read as strong as hits;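 active means z-score under -3 and OD600 up to 0.15 on both plates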;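 further: plate controls were untreated wells for no effect and antibiotic for full effect; wells of about 80 µL received 100 nL stock; the first replicate is given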
# PrP UTR inh: suppresses PrP 5' UTR mRNA reporter expression; cell-based PrP 5' UTR mRNA reporter, plate reader; inhibition, % (concentration not given with the values); 0.35% of 340,000 active; AID 488862;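 active means every replicate at 50% or more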;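 further: 0 = median of the neutral control wells; tested in H4 reporter cells; numbers are from one replicate; inactives centre near -14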
# Mtb hypoxia rep growth: further read-out of Mtb hypoxia rep, marked with its call; growth inhibition, %; measured here: M. tuberculosis growth (absorbance);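 0% = vehicle and 100% = reference antibiotic; read after six days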
# * = called active by the depositor; ? = inconclusive; . = no result given.
SMILES,Autofluor counter,BJeLR viability,RN4220 kill,Mtb hypoxia rep,Mtb hypoxia rep growth,Sa ugtP lethal,PrP UTR inh
Cc1ccc(C(=O)Nc2ccc(NC(=O)c3ccco3)c(C)c2)cc1,2830,0,0.9,13,1,3,-26
O=C(Nc1ccc(C(=O)O)cc1)/C(=C\C=C\c1ccccc1)NC(=O)c1ccc(Br)cc1,5138,-1,7.4,-23,-7,-18,-23
COc1ccc(-c2nn(CCC(=O)O)cc2/C=C2\SC(N)=NC2=O)cc1,1979,-2,4.4,4,-3,9,-11
NC(=O)CSc1nnc2n(-c3ccccc3)c(=O)c3c4c(sc3n12)CCCCC4,4229,0,2.8,.,.,6,-18
COc1ccc(C2C(C(=O)Nc3cccc(OC)c3)c3ccccc3C(=O)N2C)cc1 (stereo unspecified),4660,-5,-12,3,-1,19,-21
O=C1CC(N2CCN(Cc3ccc4c(c3)OCO4)CC2)C(=O)N1CCc1ccccc1 (stereo unspecified),10488,-2,6.4,12,5,5,-21
FC(F)(F)c1cnc(-c2cnc3c(-c4ccc(Cl)cc4)cnn3c2)c(Cl)c1,13766,12,5.8,6,3,3,-14
Cn1c(CCN2CCCCC2)nc2cc([N+](=O)[O-])ccc21,5017,-5,0.3,4,7,-9,3
O=C(CCCC(=O)c1ccc(O)cc1)c1ccc(O)cc1,3962,-1,12,9,8,-3,-19
CCN(CC)S(=O)(=O)c1ccc(C2=NOC3(C2)N(C)c2ccccc2C3(C)C)cc1 (stereo unspecified),2192,17,4.3,7,4,13,12
O=C(C[n+]1ccc(C=NO)cc1)N(Cc1ccccc1)Cc1ccccc1,.,.,0.7,-4,1,0,.
CCC1CCCCN1C(=O)CSc1nc(N)cc(=O)[nH]1 (stereo unspecified),5491,-6,0.6,-1,-3,10,-12
CCCCNCC(O)(c1ccc(Cl)cc1)c1ccc(Cl)cc1,5450,5,-2.8,-8,3,-24,-13
CCn1cc(CN2CCC(n3nccc3NC(=O)CCCc3ccccc3)CC2)cn1,5205,8,3.9,9,8,4,-14
O=C(NC1CSCC1=NO)c1ccccc1 (stereo unspecified),.,.,4.3,-3,8,0,.
CCCOc1ccc(OCC(=O)c2[nH]c(C)c(C(C)=O)c2C)cc1,7903,5,-1.6,7,3,8,8
O=C(N/N=C/c1ccccc1)c1cc[n+]([O-])cc1,3751,-5,.,.,.,.,-30
CCN1CCN(C(=O)c2ccc3c(=O)n(CCC4=CCCCC4)c(=O)[nH]c3c2)CC1,4117,12,4.0,-3,2,7,-5
COc1ccc(N2CCN(CCCNC(=O)CCC(=O)N3CCOc4ccc(Cl)cc43)CC2)cc1,5733,-4,2.4,17,13,7,-13
CC(=O)OC(C(=O)NCc1ccco1)c1ccncc1 (stereo unspecified),2907,-3,0.0,.,.,0,-1
Cc1ccc(C)c(NC(=O)CSc2nnc([C@@H]3CCCN3C(=O)OC(C)(C)C)o2)c1,2758,6,-0.2,.,.,6,-26
COCCn1c(C)cc(C2=NNC(=NC3CC3)SC2)c1C,3693,20,7.7,-6,8,3,92*
O=C(Nc1ccccc1-c1ccccc1)C(=O)Nc1ccccc1-c1ccccc1,.,-1,2.9,2,3,2,.
N#C/C(=C\c1c(N(Cc2ccccc2)Cc2ccccc2)nc2ccccn2c1=O)C(N)=O,2560,-2,.,.,.,.,-18

# Part of the list above in order of formula weight, low to high:
SMILES,Autofluor counter,BJeLR viability,RN4220 kill,Mtb hypoxia rep,Mtb hypoxia rep growth,Sa ugtP lethal,PrP UTR inh
CC(=O)OC(C(=O)NCc1ccco1)c1ccncc1 (stereo unspecified),2907,-3,0.0,.,.,0,-1
O=C(Nc1ccccc1-c1ccccc1)C(=O)Nc1ccccc1-c1ccccc1,.,-1,2.9,2,3,2,.
CCN1CCN(C(=O)c2ccc3c(=O)n(CCC4=CCCCC4)c(=O)[nH]c3c2)CC1,4117,12,4.0,-3,2,7,-5
N#C/C(=C\c1c(N(Cc2ccccc2)Cc2ccccc2)nc2ccccn2c1=O)C(N)=O,2560,-2,.,.,.,.,-18

# (next part)
SMILES,Autofluor counter,BJeLR viability,RN4220 kill,Mtb hypoxia rep,Mtb hypoxia rep growth,Sa ugtP lethal,PrP UTR inh
O=C1NCCN/C1=C\C(=O)c1ccc(F)cc1,4797,3,0.6,-3,0,4,-35
CCn1cc(C(=O)NCC2CCCO2)c(=O)c2cc(F)c(N3CCN(C)CC3)cc21 (stereo unspecified),3469,4,-9.2,3,0,7,-14
CC(C)NC(=O)CCCc1cn(C)c2ccccc12,10122,-1,9.0,4,8,-6,-8
O=S1(=O)c2ccccc2OC(COCc2ccccc2)CN1C1CC1 (stereo unspecified),3712,.,1.5,0,0,-2,7
OCCCc1nc2ccccc2n1CCCCOc1ccccc1,3487,2,7.4,20,12,-2,-9
Cc1ccc(S(=O)(=O)c2nc(-c3cccs3)oc2SCC(N)=O)cc1,3207,-12,7.2,5,10,6,-7
Cc1cc(C)nc(/N=C(\N)Nc2ccc(OCc3ccccc3)cc2)n1,3366,7,.,.,.,.,-36
CC(=O)C1=C(C)NC(SCC(N)=O)=C(C#N)C1c1ccco1 (stereo unspecified),3823,3,0.7,11,7,3,-27
Cc1cccc(Nc2nc(N)nc(CN3CCN(c4ccccc4F)CC3)n2)c1,3176,-1,-1.8,-4,0,-8,-1
CCN1C(=O)NC(CCc2ccccc2)C(C(C)=O)C1C (stereo unspecified),.,.,4.8,2,8,-2,.
COc1ccc(C2c3c(oc4ccccc4c3=O)C(=O)N2c2ccc(C)cn2)cc1OC (stereo unspecified),5835,3,2.6,.,.,5,-4
O=C(/C(=N/N=C/c1ccc(O)c(O)c1O)c1ccccc1)c1ccccc1,2068,-15,.,.,.,.,-53

# Copied from the listing (five entries):
SMILES,Autofluor counter,BJeLR viability,RN4220 kill,Mtb hypoxia rep,Mtb hypoxia rep growth,Sa ugtP lethal,PrP UTR inh
Cc1cc(C)nc(/N=C(\N)Nc2ccc(OCc3ccccc3)cc2)n1,3366,7,.,.,.,.,-36
CC(=O)C1=C(C)NC(SCC(N)=O)=C(C#N)C1c1ccco1 (stereo unspecified),3823,3,0.7,11,7,3,-27
Cc1cccc(Nc2nc(N)nc(CN3CCN(c4ccccc4F)CC3)n2)c1,3176,-1,-1.8,-4,0,-8,-1
CCN1C(=O)NC(CCc2ccccc2)C(C(C)=O)C1C (stereo unspecified),.,.,4.8,2,8,-2,.
COc1ccc(C2c3c(oc4ccccc4c3=O)C(=O)N2c2ccc(C)cn2)cc1OC (stereo unspecified),5835,3,2.6,.,.,5,-4

# Other results.
SMILES,Autofluor counter,BJeLR viability,RN4220 kill,Mtb hypoxia rep,Mtb hypoxia rep growth,Sa ugtP lethal,PrP UTR inh
CCCCCCCC(=O)NN=C(C)c1ccc(O)cc1O,.,.,-6.2,5,-3,-5,.
COc1ccc2c(c1)O[C@H]1c3ccc(O)cc3OC[C@@H]21,5091,-8,1.9,.,.,2,-28
O=[N+]([O-])c1ccccc1SN(Cc1ccccc1)c1ccccn1,2254,6,-13,-10,-3,75,-15
Cc1ccccc1CC(=O)N1CC(C)OC(C)C1 (stereo unspecified),3070,-8,3.6,9,0,14,-14
O=C1C(Cl)=C(NCCc2ccccc2)C(=O)N1CCc1ccccc1,4587,11,-1.9,.,.,11,-41
CCN1C(=O)/C(=C/c2ccc(C)s2)NC1=S,2768,-7,1.2,.,.,4,-2
O=C(Nc1nc(-c2cccs2)c(-c2cccs2)s1)C1(c2ccccc2)CC1,7306,7,2.6,-4,-1,17,-11
CCC1(c2ccc(Cl)cc2)NC(=S)N(c2ccccc2)N1 (stereo unspecified),2657,-8,1.6,14,0,11,-16
C=CCC(CC(=O)NC(CO)Cc1ccccc1)C(=O)NCCOC(=O)C(CC=C)Cc1ccc(F)cc1 (stereo unspecified),.,.,2.5,7,1,-6,.
CCC1CCCCN1CCCNC(=O)c1cn(CC(C)C)c(=O)c2cc(OC)c(OC)cc12 (stereo unspecified),3886,1,2.1,-3,3,0,-8
COc1cc(C=NNC(=O)c2cc(C3CC3)[nH]n2)ccc1O,.,.,-1.8,1,5,8,.
CN1CCN(c2cc(-c3ccccc3)nc3cc(-c4ccc(F)cc4)nn23)CC1,2593,4,11,.,.,70,-4
Cc1cccc2c(=O)cc(C)n(CC(N)=O)c12,4474,-5,3.6,-2,2,5,-47
O=C(NCc1cccc(F)c1)C1CCC(=O)N(C2CC2)C1 (stereo unspecified),5644,6,3.0,2,-3,2,-6
CCN1CCc2c(sc(NC(=O)Cc3ccccc3)c2C(=O)OC)C1,5647,7,32,-8,3,21,-8
Cc1nc2ccccc2nc1NN=Cc1ccc(O)cc1,.,.,-6.1,1,-4,2,.
CC1CCCN(C(=O)COC(=O)c2ccc[nH]c2=O)C1 (stereo unspecified),4046,-1,-4.0,.,.,-1,-7
COC(=O)CN1CCN(C(c2ccccc2)c2ccccc2)CC1,11512,9,-1.2,5,1,1,-17
Cc1cccc(N(CC(=O)NC2CCCC2)C(=O)CS(=O)CC(=O)Nc2ccc3c(c2)OCO3)c1 (stereo unspecified),22772*,2,1.1,1,6,-2,-13
CC(=O)c1cccc(NC(=O)CN(c2ccccc2)S(C)(=O)=O)c1,4559,-19,-0.7,.,.,-4,-11
Nc1cc(-c2ccc(Cl)cc2)nn1S(=O)(=O)c1ccccc1,4190,-4,-2.1,10,-1,14,-21
O=C(NCC(=O)N1CCCCC1)c1ccc(Br)o1,13148,1,-0.4,5,2,0,-6
O=C(CSC1=Nc2ccccc2C2CC=NN12)Nc1ccc(F)cc1Cl (stereo unspecified),3740,-4,1.4,-1,6,-6,-15
Cc1ccc(OC(=O)C2c3ccccc3Oc3ccccc32)cc1C,3284,-4,-0.6,17,1,90*,-18
Cc1nn(-c2ccccc2)c2[nH]c(=O)cc(C(F)(F)F)c12,3559,4,6.2,12,11,6,-16
O=C(Cn1c(=O)c2cccn2c2ccccc21)Nc1ccc(F)cc1F,10967,-3,3.1,9,3,0,-10
O=C(NCc1ccccc1)C1=C[C@@H](c2ccc(Br)cc2)C[C@@H](OCCCCO)O1,3932,-1,.,.,.,.,-7
CCOC(=O)c1cnn(-c2nc(-c3ccc(F)cc3)cs2)c1C(F)(F)F,6280,12,3.0,8,9,77,-26
CCC(C(=O)OCC(=O)Nc1ccc(Cl)c(S(=O)(=O)N(C)C)c1)c1ccccc1 (stereo unspecified),2455,-1,-3.3,-10,22,-6,-28
Cc1cccc(NC(=S)NCc2cccn2C)c1,11161,-10,1.0,0,3,-4,-12
C/C(=N\NC(=O)CCc1ccccc1)c1ccc(Br)cc1,6078,-2,.,.,.,.,-21
O=C(CSc1nnnn1-c1ccc(O)cc1)Nc1ccc(N2CCOCC2)c(Cl)c1,8133,-1,3.1,-5,0,18,0
Cn1c(C(=O)N2CCC(C(=O)N3CCOCC3)CC2)cc2sccc21,5902,3,-8.2,4,6,-4,-8
COc1ccc(C(=O)C2CCCN(Cc3ccon3)C2)cc1OC (stereo unspecified),2012,-3,2.4,-3,-1,11,-2
O=C1CSC(=S)N1/N=C/c1cc(Br)c(O)c(Br)c1,6786,-8,.,.,.,.,-3
COc1ccccc1NC(=O)C(=O)NCC(c1ccco1)N1CCc2ccccc21 (stereo unspecified),?,-2,0.1,11,14,24,10
Cc1ccc(C(=O)Nn2cnnc2)cc1[N+](=O)[O-],6082,2,4.7,18,4,-1,-10
O=C(O)c1nn(-c2ccc(Cl)cc2)ccc1=O,4758,-3,3.8,.,.,4,-14
CCN(CC)CCNC(=O)c1ccc(NC(=O)c2cc(-c3ccncc3)nc3ccccc23)cc1,5902,.,-2.7,11,10,-7,-6
CCc1ccc(-c2cc(C)no2)cc1S(=O)(=O)N1CCN(c2ccccc2F)CC1,5438,9,-3.0,-7,1,-1,0
